Sa RN4220 lethal: S. aureus RN4220 growth inhibition; 0.33% of 330,000 active; inhibition, % (no concentration beside the values); OD600, 16 h;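 active = z-score of -3 or lower and OD600 up to 0.18 on both plates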;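 note: plate controls were untreated cells for no effect and reference antibiotic for full effect; stock transfer was 100 nL into about 80 µL; one replicate is shown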
Mtb hypoxia rep: reduces hypoxia-regulated biosensor signal in M. tuberculosis; 0.1% of 300,000 active; fluorescence inhibition, % (concentration not given with the values); M. tuberculosis hypoxia-regulated fluorescent reporter, fluorescence; AID 1159583;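 active = 35 to 45% if threefold the growth effect, above 45% if 1.5-fold the growth effect; inactive = the rest, general growth blockers included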;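 note: wells of about 50 µL received 100 nL stock; 0% = vehicle wells and 100% = reference inhibitor wells; whole bacteria with a GFP reporter of the hypoxia response; strong numbers were not always called active; many hits fall short of the cut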
Sa ugtP lethal: growth inhibition of S. aureus ugtP deletion strain; growth inhibition, % (no concentration beside the values); S. aureus RN4220 ugtP deletion, OD600 growth, 16 h; some inactives read as strong as hits; 0.54% of 330,000 active; AID 1259309;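 active = z-score under -3 and OD600 up to 0.15 on both plates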;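 note: plate controls were untreated wells for no effect and antibiotic for full effect; wells of about 80 µL received 100 nL stock; the first replicate is given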
BJeLR lethal: BJeLR cell viability loss | BJeLR (HRASV12) viability, CellTiter-Glo ATP luminescence, 48 h; reference of the scale not given here | inhibition, % (test concentration not listed) | 0.17% of 300,000 active;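 active = replicate mean above 50%; inconclusive = above 50% but judged a plate artefact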;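 note: 50 nL library stock added to about 25 µL; numbers are from one replicate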
PrP 5UTR inh: inhibition of PrP 5' UTR reporter expression; cell-based PrP 5' UTR mRNA reporter, plate reader; inhibition, % (test concentration not listed); 0.35% of 340,000 active; AID 488862;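 active = every replicate at 50% or more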;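 note: 0 = median of the neutral control wells; tested in H4 reporter cells; numbers are from one replicate; inactives centre near -14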
Autofluor counter: counter-screen for toxin protease inhibitors: compound fluorescence | compound autofluorescence counterscreen, microsphere flow cytometry; active compounds read high | fluorescence intensity (test concentration not listed) | 3.1% of 360,000 active | AID 624483;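 active = at least 3 SD above the mean of all compounds, about 16000 in these data; inconclusive = too few beads counted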;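 note: 100 nL of 1 mM stock went into each well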
Mtb hypoxia rep growth: further read-out of Mtb hypoxia rep, marked with its call; growth inhibition, %; measured here: M. tuberculosis growth (absorbance);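 0% = vehicle and 100% = reference antibiotic; read after six days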
Active calls of the source: *; ? = inconclusive; · = no result given; & = joins results of further samples. Outcome played no part in choosing rows; 4% or so of the library scored in one or more.

SMILES	Sa RN4220 lethal	Mtb hypoxia rep	Mtb hypoxia rep growth	Sa ugtP lethal	BJeLR lethal	PrP 5UTR inh	Autofluor counter
CC(C)(C)C1CCC(=NNc2nc3ccccc3[nH]2)CC1 (configuration not stated)	3.5	-1	-5	-4	6	-38	3924
CCOc1ccc(CN2CCNC(=O)C2CC(=O)OC)cc1 (configuration not stated)	3.8	4	-3	16	-1	-11	5558
NNC(=O)CNc1ccccc1Cl	2.3	4	6	10	11	8	3334
COc1ccc(NC(=O)Cn2nnc(C(=O)Nc3ccc(F)c(Cl)c3)c2N)cc1	-5.7	-1	3	-7	8	-2	5341
COc1ccccc1CNC(=O)Cn1cnc2ccccc2c1=O	3.5	6	0	3	-7	-21	3076
CC(=O)c1ccc([N+](=O)[O-])c(CS(=O)(=O)c2ccc(Cl)cc2)c1	1.1	-2	4	1	5	-5	3076
COc1cc2c(cc1OC)-c1cc(Nc3cccc(C)c3)nc(=O)n1CC2	-2.8	9	2	-6	4	-26	4231
CCCCNC(=S)N1CCn2cccc2C1c1ccc(F)cc1 (configuration not stated)	-2.2	13	3	2	4	-22	3255
O=C(NCC1(N2CCOCC2)CCCCC1)c1cccc(S(=O)(=O)Nc2ccc(F)cc2)c1	3.8	9	3	-3	·	-11	4130
O=C(COC(=O)CCc1ccc(S(=O)(=O)N2CCOCC2)cc1)NCc1ccccc1Cl	3.8	7	6	3	-5	·	4449
CCOC(=O)C1(C)Oc2cccnc2NC1=O (configuration not stated)	-0.2	11	-4	1	1	-19	4791
O=C(Nc1cc(S(=O)(=O)N2CCOCC2)ccc1N1CCOCC1)c1ccccc1Cl	2.8	4	5	3	·	-28	2902
COc1ccc(-c2nc(-c3ccncc3)no2)cc1OC	9.5	9	1	0	-8	-55	?
CC1(C)CNC(=O)c2sc(N3CCOCC3)nc2C1	3.9	1	-8	3	-6	-3	12575
O=C(O)c1ccccc1Nc1ccnc(Cl)n1	4.4	-3	-5	14	-1	-34	3329
COC(=O)C1=C(C(=O)OC)SC(=C2C(=S)C(C)(C)N(C(=O)C(C)C)c3ccccc32)S1	-6.6	10	2	22	-2	-18	11003
C#CCNC(=O)C1=CC(C2CCCCC2)CC(OCCCCO)O1 (configuration not stated)	7.7&5.1	5&4	9&6	-1&1	·	·	·
Cc1cc2c(c(SCC(=O)NCc3ccc(Cl)cc3)n1)C(=O)OC2	-5.7	14	2	6	-3	-25	4274
CCN(c1ccccc1)S(=O)(=O)c1ccc(NC(=S)NC(=O)c2ccc(Br)o2)cc1	·	·	·	·	-4	-9	3061
CC(NC(=O)CSc1n[nH]c(=O)[nH]c1=O)C1CC2CCC1C2 (configuration not stated)	9.2	-2	-5	2	7	-13	·
COC(=O)c1ccccc1NC(=S)NC(=O)c1ccccc1C	12	10	6	-4	19	-17	11204
Cc1ccnc(SCCn2c(N(C)Cc3ccccc3)nc3c2c(=O)n(C)c(=O)n3C)n1	-6.7	10	15	-4	3	-8	5915
CCCN1C(=O)CN(C2CCCCCC2)C(=O)C1c1ccc(C)cc1 (configuration not stated)	-0.2	2	15	-6	2	0	23066*
COc1ccc(NC(=S)NNc2ccc(C(=O)O)cc2)cc1	2.3	0	0	1	0	0	4492
CCOC(=O)c1cccc(NC(=O)N2CCOCC2)c1	0.1	13	1	5	-9	-12	3179
Cc1cccc(N2CCN(C(=O)c3ccc(N4CCCC4=O)cc3)CC2C)c1 (configuration not stated)	0.6	·	·	6	-3	-24	3864
NC(=O)c1nsc(C(=O)N(c2cccc(F)c2)C(C(=O)NC2CCCC2)c2ccco2)c1N (configuration not stated)	0.2	1	0	6	-5	-21	4324
O=C(CSc1nc(O)c(Cc2ccccc2)c(=O)[nH]1)Nc1ccccc1	3.3	4	12	-2	5	-22	?
O=C(CNC(=O)c1ccccc1F)NCCc1ccc(Cl)cc1Cl	-0.8	-15	-2	1	-1	-13	6597
COC(=O)C(=CC(=CN(C)C)C=C(C(=O)OC)C(=O)OC)C(=O)OC	6.0	20	1	18	-2	-2	3857
CCOC(=O)C=C1CN(Cc2cc(OC)c(OC)c(OC)c2)S(=O)(=O)c2ccccc21	8.5	-2	-3	10	·	·	·
O=C(NC(=S)NCC1CCCO1)c1ccco1 (configuration not stated)	5.3	11	7	15	0	-14	4508
C=CCOc1ccc2ccccc2c1CNn1c(C)n[nH]c1=S	3.6	7	-4	6	-12	-11	4096
COC(=O)c1ccc(C(=O)OC)c(NC(=O)N2c3ccccc3Sc3ccccc32)c1	5.6	-2	4	2	-6	-28	9600
CC(C)(C)c1ccc(C(=O)NN=Cc2ccc(OCCCF)cc2)cc1	7.0	-3	-11	6	·	·	·
COc1ccccc1C1C=C(c2ccc(C)cc2)Nc2nnnn21 (configuration not stated)	-4.7	·	·	-13	-2	-18	3967
c1ccc(-n2ncc3c(NCCN4CCOCC4)ncnc32)cc1	-0.9	-2	-5	-2	2	-24	16340*
COc1ccc(NC(=O)CCc2nnc3ccc(N4CCC(C)CC4)nn23)cc1OC	0.0	8	15	6	-3	-13	4960
CN(C)S(=O)(=O)c1ccc(C(=O)Nc2ccccc2SCCC#N)cc1	6.3	-6	8	3	7	-12	2065
Cc1ccc(C2C(C(=O)c3cccs3)=C(O)C(=O)N2c2cccc(C)n2)cc1 (configuration not stated)	9.9	1	10	-10	10	-37	6007
CCn1c(SCC(=O)c2c[nH]c3ccccc23)nc2cc(S(=O)(=O)N3CCOCC3)ccc21	6.2	3	-2	-5	-2	-18	5805
Cc1ccc(S(=O)(=O)N2CCSC2c2ccco2)cc1 (configuration not stated)	-2.4	·	·	-2	1	3	4198
O=C(c1c[nH]c2ccccc2c1=O)N1CCCCCC1	0.1	11	3	2	10	-29	4577
O=C1CCCCC1CCc1ccncc1 (configuration not stated)	4.3	7	8	1	·	-22	3546
Oc1ccccc1C(=S)N1CCN(C(=S)c2ccccc2O)CC1	1.5	14	3	7	0	-8	3975
O=C(c1ccccc1)N(Cc1ccc(F)cc1)Cc1nc2ccccc2c(=O)[nH]1	0.3	0	5	0	23	-3	6834
Cc1cc(C)c([N+](=O)[O-])cc1-c1ccc(C=Nc2c(-c3ccco3)nc3ccccn23)o1	30	13	7	10	·	·	·
COC(=O)c1ccccc1NC(=O)COC(C)=O	-1.0	·	·	-9	-12	-17	4487

Record cards, as listed above. Order of values: Sa RN4220 lethal | Mtb hypoxia rep | Mtb hypoxia rep growth | Sa ugtP lethal | BJeLR lethal | PrP 5UTR inh | Autofluor counter
Profile of COC(=O)c1ccccc1NC(=O)COC(C)=O : -1.0 | · | · | -9 | -12 | -17 | 4487
Profile of Oc1ccccc1C(=S)N1CCN(C(=S)c2ccccc2O)CC1 : 1.5 | 14 | 3 | 7 | 0 | -8 | 3975

Next structures follow.
SMILES	Sa RN4220 lethal	Mtb hypoxia rep	Mtb hypoxia rep growth	Sa ugtP lethal	BJeLR lethal	PrP 5UTR inh	Autofluor counter
Cc1cccc(OCCCn2c(=O)oc3ccc(C)cc32)c1	-6.4	-6	2	8	-2	-22	4108
CCOC(=O)CN1NC2(CCC(C(C)(C)C)CC2)NC1=S (configuration not stated)	5.1	4	-1	6	26	-10	3548
O/N=C1\CC/C(=N\O)c2nn(-c3ccc(Cl)cc3Cl)nc21	·	·	·	·	-4	-17	7891
Cc1cccc(C)c1NC(=O)CN(C)C(=O)Cc1cccc(C(F)(F)F)c1	0.0	-11	3	6	-8	-5	3464
CCN1CCN(c2ncnc3sc(C(=O)Nc4ccccc4F)c(C)c23)CC1	-2.0	·	·	-6	0	-4	5533
COc1cc(OC)cc(C(=O)NCc2ccc(-n3cccc3)cc2)c1	2.5	16	11	1	-2	-27	4767
CC(=O)Nc1ccc(S(=O)(=O)N2CCN(c3cc4c(cc3[N+](=O)[O-])n(C)c(=O)n4C)CC2)cc1	3.6	-3	5	-20	7	0	21248*
COc1ccccc1CNC(=O)CN(Cc1ccc(Cl)cc1)S(C)(=O)=O	2.5	8	7	1	-3	-9	5038
COc1ccc(C(=O)N2CCN(S(=O)(=O)c3ccc(C)cc3C)CC2)cc1S(=O)(=O)N1CCOCC1	3.7	18	43	7	·	-19	3889
CCOC(=O)c1cn(Cc2ccc(C)cc2)c2cc(F)ccc2c1=O	1.3	8	4	6	1	8	3344
Cc1ccc(NC(=O)C(Cc2ccccc2)N2C(=O)C3C4CCC(C4)C3C2=O)cc1Cl (configuration not stated)	2.6	2	0	2	2	-21	5344
COc1ccc(NC(=O)CSc2nnc(NC(=O)C3CCC3)s2)c(OC)c1	5.0	-1	-5	2	1	-54	3669
Cc1nn(C)c(C)c1NC(=O)CCCSc1nc(-c2ccco2)cc(C(F)(F)F)n1	-9.3	20	14	-8	6	-48	3304
CC(=O)Nc1ccc(NC(=O)C(Cc2ccccc2)NC(=O)C2CCC(C)CC2)cc1 (configuration not stated)	-0.8	8	7	9	-7	-4	9458
COCCSc1ccccc1C(=O)Nc1ccc(S(=O)(=O)N2CCOCC2)cc1	1.5	1	5	1	0	13	3981
O=[N+]([O-])c1cc2oc3c(c2c(C=NCc2ccncc2)c1O)CCCC3	7.3	18	4	-11	·	-13	2245
CC(NC(=O)COC(=O)c1cc(=O)c2ccccc2o1)c1ccccc1 (configuration not stated)	-0.1	10	5	0	·	-15	2851
N#C/C(=C\c1ccc(-c2cccc([N+](=O)[O-])c2)o1)C(=O)Nc1nc(-c2cccs2)cs1	·	·	·	·	-2	-14	3242
COCc1cc(C)nc2sc(C(=O)Nc3ccccc3OC)c(N)c12	14	12	6	0	-5	-44	3854
O=C(O)C1=CCC(c2ccc(Cl)cc2)N(S(=O)(=O)c2ccc(Cl)cc2)C1 (configuration not stated)	6.6	-2	-13	-4	·	·	·
COc1ccc(Cl)cc1-c1nc(SCC(=O)NCC2CCCO2)n[nH]1 (configuration not stated)	7.3	0	2	13	·	-5	·
COc1ccc(C(=O)NCCS(=O)(=O)NC(C)c2ccccc2)cc1 (configuration not stated)	2.5	-3	11	-2	-6	-8	5911
Cc1nc2ccc(S(=O)(=O)Nc3ccc(-c4nc5cccnc5s4)cc3)cc2s1	·	·	·	·	-6	-11	4959
O=C(CCC(=O)c1cccs1)NCC(c1ccc(F)cc1)N1CCOCC1 (configuration not stated)	-0.6	10	14	-4	·	-6	3220
COC(=O)N/N=C/c1cc(Cl)c(OCc2ccc(F)cc2)c(OC)c1	·	·	·	·	-8	-19	2217
Cc1ccc(C2=N/C(=C\c3cccnc3)C(=O)O2)cc1	5.1	15	3	-1	1	-22	2100
N/C(=N/O)c1nc(N2CCCCC2)nc(N2CCCCC2)n1	·	·	·	·	8	-6	4567

An excerpt of these results, with each value named.
Compound: COC(=O)c1ccccc1NC(=O)COC(C)=O
  Sa RN4220 lethal: -1.0	Mtb hypoxia rep: ·	Mtb hypoxia rep growth: ·	Sa ugtP lethal: -9	BJeLR lethal: -12	PrP 5UTR inh: -17	Autofluor counter: 4487

Compound: Cc1cccc(OCCCn2c(=O)oc3ccc(C)cc32)c1
  Sa RN4220 lethal: -6.4	Mtb hypoxia rep: -6	Mtb hypoxia rep growth: 2	Sa ugtP lethal: 8	BJeLR lethal: -2	PrP 5UTR inh: -22	Autofluor counter: 4108

Structures listed so far with a thiophene ring, fused or not, in the order listed:
SMILES	Sa RN4220 lethal	Mtb hypoxia rep	Mtb hypoxia rep growth	Sa ugtP lethal	BJeLR lethal	PrP 5UTR inh	Autofluor counter
Cc1ccc(C2C(C(=O)c3cccs3)=C(O)C(=O)N2c2cccc(C)n2)cc1 (configuration not stated)	9.9	1	10	-10	10	-37	6007
CCN1CCN(c2ncnc3sc(C(=O)Nc4ccccc4F)c(C)c23)CC1	-2.0	·	·	-6	0	-4	5533
N#C/C(=C\c1ccc(-c2cccc([N+](=O)[O-])c2)o1)C(=O)Nc1nc(-c2cccs2)cs1	·	·	·	·	-2	-14	3242
COCc1cc(C)nc2sc(C(=O)Nc3ccccc3OC)c(N)c12	14	12	6	0	-5	-44	3854
O=C(CCC(=O)c1cccs1)NCC(c1ccc(F)cc1)N1CCOCC1 (configuration not stated)	-0.6	10	14	-4	·	-6	3220

Compound activity (PubChem BioAssay)
